# RE007 growth inh – less growth of the S. pombe RE007 Vpr strain. Potency, µM (titrated, usually from 92.2 µM), inactives show top-dose activity change, negative = less growth. S. pombe RE007 Vpr strain, BacTiter-Glo ATP luminescence, 24 h; control for the full effect not named in the record. hit rate 0.21% among 360,000; active = well fitted falling curve with a large enough effect; inconclusive = small, poorly fitted or top-dose-only effect; inactive = no such curve, though single readings can be large or run the other way;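 note: % is set by controls: 0 for no effect and ±100 for the full control effect; nearly all actives have a fitted effect of over 50% in size; the assay follows cell death caused by Vpr and the record does not say whether a fall means rescue or toxicity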
#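 Fission yeast strain RE007, carrying one chromosomally integrated HIV-1 vpr copy, was seeded at OD 0.01 in PMG+AL medium with 23 nL pinned compound. After 24 h at 30 °C and 99% humidity, viability was read by BacTiter-Glo luminescence.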
# Cruzain inh Det – cruzain (T. cruzi) inhibition with detergent. hit rate 0.43% among 200,000. purified cruzain, Z-FR-AMC fluorescence, 0.01% Triton. Potency, µM, inactives show max response, negative = inhibition, usual class: inhibitors. AID 1478; active = well fitted curve in the direction sought with a large enough effect; inconclusive = small, poorly fitted or top-dose-only effect, or another doubt; inactive = no such curve, though single readings can be large; an effect the other way counts as inactive or inconclusive;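 note: plate controls were neutral wells for no effect and buffer without enzyme for full effect; nearly all actives have a fitted effect of over 40% in size; top concentration of the series not given in the record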
# Target sequence (P25779 123-467 limits assumed): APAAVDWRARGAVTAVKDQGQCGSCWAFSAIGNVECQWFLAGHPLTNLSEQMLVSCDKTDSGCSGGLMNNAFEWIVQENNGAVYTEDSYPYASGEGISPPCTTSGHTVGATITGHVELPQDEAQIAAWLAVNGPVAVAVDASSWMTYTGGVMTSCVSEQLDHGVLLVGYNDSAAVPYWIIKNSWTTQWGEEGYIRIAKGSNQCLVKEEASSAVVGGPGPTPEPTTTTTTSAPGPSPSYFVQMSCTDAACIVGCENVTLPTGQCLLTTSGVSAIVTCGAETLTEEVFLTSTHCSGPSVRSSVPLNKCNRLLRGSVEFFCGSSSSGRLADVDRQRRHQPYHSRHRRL
#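 Sodium acetate buffer (100 mM, pH 5.5) containing 5 mM DTT and 0.01% Triton X-100 hosted 1.5 nM cruzain and test compound for 15 min at room temperature. Cleavage of 2 uM Z-FR-AMC was then tracked by fluorescence.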
# Lassa entry inh – Lassa virus entry inhibition | Potency, µM (titrated, usually from 37.9 µM), for the others: at the highest dose activity change, negative = inhibition, most hits filed as inhibitors | AID 540256 | hit rate 1.2% among 300,000 | Lassa virus pseudotype entry inhibition, cell reporter; control for the full effect not named in the record; active means well fitted inhibition curve with a large enough effect; inconclusive means small, poorly fitted or top-dose-only effect, or effect the other way; inactive means flat fitted curve, though single readings scatter; tested in HEK293 cells; note: % is set by controls: 0 for no effect and ±100 for the full control effect; nearly all actives have a fitted effect of over 50% in size; luciferase read-out
# StopGo reporter – lowers the luciferase signal of an FMDV 2A StopGo reporter | Potency, µM (highest dose often 57.9 µM), for inactives: at the highest dose signal change, negative = less light | human cells with a luciferase reporter of 2A StopGo recoding; control for the full effect not named in the record | hit rate 1.2% among 410,000; active = well fitted falling curve with a large enough effect; inconclusive = small, poorly fitted or top-dose-only effect; inactive = no such curve, though single readings can be large or run the other way; tested in HEK293T cells; note: % is set by controls: 0 for no effect and ±100 for the full control effect; nearly all actives have a fitted effect of over 45% in size; luciferase light after 4 h
# Cruzain noTriton – inhibitors of Trypanosoma cruzi cruzain without detergent; P25779; purified cruzain, Z-FR-AMC fluorescence, no detergent; Potency, µM, inactives show max response, negative = inhibition, hits mostly inhibitors; hit rate 2.3% among 200,000; AID 1476; active = well fitted curve in the direction sought with a large enough effect; inconclusive = small, poorly fitted or top-dose-only effect, or another doubt; inactive = no such curve, though single readings can be large; an effect the other way counts as inactive or inconclusive;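 note: plate controls were enzyme without inhibitor for no effect and buffer without enzyme for full effect; nearly all actives have a fitted effect of over 40% in size; top concentration of the series not given in the record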
#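 Purified cruzain at 1.5 nM, pre-incubated 15 min with compound at room temperature in 100 mM sodium acetate pH 5.5, 5 mM DTT, 0.00005% Triton X-100. Reaction started with 2 uM Z-FR-AMC; AMC fluorescence increase over 60 s gives rate.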
# Marburg entry inh – inhibitors of Marburg virus binding or cell entry; hit rate 1.8% among 300,000; AID 540276; Marburg virus pseudotyped entry inhibition, cell reporter; control for the full effect not named in the record; about a third of the inactives were read at about 46 µM; Potency, µM (highest dose often 37.8 µM), for inactives: at the top dose activity change, negative = inhibition, most hits filed as inhibitors; active = well fitted inhibition curve with a large enough effect; inconclusive = small, poorly fitted or top-dose-only effect, or effect the other way; inactive = flat fitted curve, though single readings scatter; tested in HEK293 cells; about a fifth of its hits are not listed in these tables; note: % is set by controls: 0 for no effect and ±100 for the full control effect; luciferase read-out
# SARS PLpro yeast – SARS-CoV PLP inhibition in yeast. S. cerevisiae expressing SARS-CoV PLpro, growth rescue; control for the full effect not named in the record. Potency, µM (series often up to 32.9 µM), for the others: at the highest dose activity, positive = growth rescue. hit rate 0.19% among 330,000; note: 0% is about no effect; nearly all actives have a fitted effect of over 55% in size; growth read by luminescence after 48 h
# NS1 function inh – inhibitors of influenza NS1 protein function; Potency, µM (doses to about 46.1 µM), for the others: at the top dose activity, positive = more growth; hit rate 0.4% among 270,000; S. cerevisiae slowed by influenza A NS1, growth recovery by OD600; note: actives are rising curves; nearly all actives have a fitted effect of over 50% in size
#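 Read-out: OD600 growth recovery of NS1-expressing budding yeast. Cells grown overnight at 30C in -URA glucose medium, washed, resuspended and diluted 1:100 in 2% galactose assay medium, pH 6.0. Same strain lacking NS1 served as positive control.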
# Active calls of the source: *; ? = inconclusive; · = not tested or not shown; & = joins results of further samples; [ ] = another dose, or the depositor's remark. Unless noted, calls come from the whole dose curve; as a rule, active means well fitted rising curve with a large enough effect; inconclusive means small, poorly fitted or top-dose-only effect; inactive means no such curve, though single readings can be large or run the other way. Potency is the fitted concentration of half-maximal effect.
SMILES,RE007 growth inh,Cruzain inh Det,Lassa entry inh,StopGo reporter,Cruzain noTriton,Marburg entry inh,SARS PLpro yeast,NS1 function inh
COc1ccc(-c2nnc(CSc3nc4ccccc4c(=O)n3CC3CCCO3)o2)cc1OC (stereo not given),6%,·,-8%,-25%,·,-14%&-14%,-2%,-51%
CCCN(CCC)S(=O)(=O)c1ccc(C(=O)Nc2cc3oc4ccccc4c3cc2OC)cc1,14%,-10%,-14%,-22%,16µM*,-14%,22%,3%
Cc1c(NC(=O)CSc2nnc(-c3cccc(Cl)c3)o2)c(=O)n(-c2ccccc2)n1C,8%,-0.2%,-4%,-14%,16%,7%,5%,?
CCOC(=O)C1CCCN(C(=O)c2cc3c(=O)n(C)c4ccccc4c3s2)C1 (stereo not given),·,-8.1%,4%[46.1 µM],?,16%,0%[46.1 µM],·,·
COc1ccc([N+](=O)[O-])cc1NS(=O)(=O)c1cc(C(=O)O)ccc1OC,7%,·,·,0%,·,·,-1%,2%
CCN(CCCC(=O)c1ccc(F)cc1)CCc1ccccc1,-14%,·,?,3%,·,3.5µM*,4%,4%
O=C1CC(c2ccccc2)c2c(O)cc(O)cc2O1 (stereo not given),8%,4.1%,-12%,-15%,1%,?,0%,1%
COc1ccc(C2N(C(=O)CN3CCCC3)CCCN2S(=O)(=O)c2ccccc2)cc1 (stereo not given),-12%,·,7%,-2%,·,?,-2%,?
CCc1nnc(NC(=O)CCC(=O)NCc2ccccc2Cl)s1,-9%,·,·,-17%,·,·,-5%,-3%
CCOC(=O)Nc1nc2ccccc2s1,-1%,-3.5%,-24%,42%[activator],-28%,-16%,6%,-19%
CSCC(CO)NS(=O)(=O)c1ccc(C)cc1 (stereo not given),-3%,·,6%,28%,·,4%[46.1 µM],0%,-1%
COc1ccccc1NC(=O)CSc1oc(-c2cccs2)nc1S(=O)(=O)c1ccccc1,·,-4.2%,-1%[46.1 µM],-7%,?,-4%[46.1 µM],·,·
O=C(CSc1nnc(CNC(=O)c2ccco2)o1)Nc1ccc(F)cc1F,-5%,·,18%[46.1 µM],0%,·,11%[46.1 µM],-3%,5%
COc1cc(/C=N/OCC(=O)NC2CCS(=O)(=O)C2)ccc1OC(F)F (stereo not given),10%,·,·,-2%,·,-14%[46.1 µM],1%,·
CSc1ccccc1OCc1cc(C(=O)NCCN2CCCC(O)C2)no1 (stereo not given),10%,·,1%,-7%,·,-2%,-3%,-2%
Cc1ccccc1NC(=O)/C(=C\c1cccs1)NC(=O)c1ccccc1,7%,-2.2%,-7%,15%,0%,-12%,5%,11%
COc1ccc(OC)c(C(=O)c2ccccn2)c1,4%,·,15%,-6%,·,11%,-3%,2%
COC(=O)/C(=C/c1cn(C)c2ccccc12)[N+](=O)[O-],·,5.2%,·,·,2%,-3%,3%,10%
CS(=O)(=O)N(CC(=O)N1CCCC1)c1cc(Cl)ccc1Cl,6%,·,·,-5%,·,·,0%,7%
CCOC(=O)Cc1c(C)c2ccc(N(CC)CC)cc2oc1=O,6%,-30%,-8%,-2%,4%,-3%,5%,-9%
CC(C)c1ccc(NC(=O)CCNC(=O)Cn2ccc3ccccc3c2=O)cc1,0%,·,?,3%,·,10%[46.1 µM],1%,16%
COc1ccc2c(c1)c1c(c(=O)n(CCc3ccccc3)c(=O)n1Cc1ccccc1)n2C,·,-2.7%,17%[46.1 µM],-7%,3%,·,·,·
CCC(C)[C@H](NC(=O)N1CC(=O)Nc2ccccc21)C(=O)N1CCC(C(=O)O)CC1 (stereo not given in full),4%,·,·,-25%,·,·,0%,-4%
CCC(=O)N1c2ccc(S(=O)(=O)N3CCN(C)CC3)cc2CC1C (stereo not given),5%,·,·,-18%,·,·,1%,-9%
Cc1ccc2c(CC(=O)N3CCN(c4cccc(Cl)c4)CC3)coc2c1C,·,-16%,23%[46.1 µM],?,3%,-11%[46.1 µM],·,·

# (continued)
SMILES,RE007 growth inh,Cruzain inh Det,Lassa entry inh,StopGo reporter,Cruzain noTriton,Marburg entry inh,SARS PLpro yeast,NS1 function inh
Cn1cc(CCC(=O)N2CCCC(CCC(=O)NCc3ccc(F)c(F)c3)C2)cn1 (stereo not given),5%,·,·,55%[activator],·,·,1%,-3%
Cc1cc(C2(c3ccc(O)c(C)c3)C(=O)Nc3ccccc32)ccc1O,16%,-16%,?,?,14%,?,-1%,19%
CN(C)C(=O)CSc1nnc(-c2ccc(F)cc2)c2ccccc12,4%,·,·,?,·,·,1%,10%
Cc1ccc(CNC(=O)CS(=O)(=O)c2ccccc2)cc1,-12%,·,·,22%,·,·,1%,2%
CN(Cc1nc2ccc(F)cc2[nH]1)C(=O)C1CCC(=O)N(C2CC2)C1 (stereo not given),4%,·,?,-9%,·,6%,1%,3%
COc1ccc2oc(C(=O)OC(C)C(=O)NCc3ccccc3)c(C)c2c1 (stereo not given),21%,·,?,-21%,·,?,-4%,·
CC(NC(=O)c1cccnc1)C(c1cccs1)N1CCOCC1 (stereo not given),-14%,0.8%,0%,-12%,-20%,?,11%,-1%
Cc1nn(CC(=O)Nc2c(F)cc(F)cc2Br)c(=O)c2cccn12,-9%,·,?,-2%,·,2%[46.1 µM],-4%,-8%
COC1CCN(Cc2cn(Cc3ccccc3)nc2-c2cc3ccccc3o2)CC1,1%,·,·,-13%,·,·,1%,-5%
COc1ccc(Cc2nc3ccc(C(=O)NCc4ccccc4Cl)cc3o2)cc1,·,-7.9%,-25%[46.1 µM],-15%,7%,·,·,·
Cn1ncc(Cl)c1C(=O)NCc1ccc(Cl)cc1,3%,-0.5%,-15%,?,3%,-14%,-17%,5%
CCCn1c(-c2ccccc2)cc(SC)c(C#N)c1=O,2%,·,?,-11%,·,?,2%,·
Cc1nonc1OCCNc1ccc([N+](=O)[O-])cc1,22%,-7.3%,0%,0%,-3%,17%[46.1 µM],-11%,0%
CCOC(=O)C1=C(CS(=O)(=O)c2ccc(C)cc2)NC(=O)NC1c1cc(OC)c(O)c(OC)c1 (stereo not given),3%,·,·,-18%,·,·,-2%,12%
O=C(Nc1ncc([N+](=O)[O-])s1)C1CC(=O)N(c2ccc(F)cc2)C1 (stereo not given),5%,·,5%,25%,·,5%,1%,10%
Cc1cc(C)c2[nH]c(=O)c(C(c3nnnn3C(C)(C)C)N(Cc3ccco3)CC3CCCO3)cc2c1 (stereo not given),-2%,-0.5%,-2%,8%,?,?,8%,9%
CN(C)S(=O)(=O)c1ccc2c(c1)/C(=C/c1cc3c([nH]1)CCCC3)C(=O)N2,3%,-4.9%,?,21%,?,?,·,-8%
Cc1ncc([N+](=O)[O-])n1CCN1C(=O)c2ccccc2C1=O,-25%,·,11%,5%,·,1%,-1%,-1%
Cc1cc(=O)n2[nH]c(-c3ccc(Cl)cc3)cc2n1,11%,-2.4%,9%,-6%,0%,?,13%,1%
Cc1cc(C(=O)N/N=C(\CCC(=O)O)c2cccs2)c2ccccc2n1,-9%,·,18%[46.1 µM],-15%,·,-24%[46.1 µM],0%,·
COc1cc(Cl)c(C)cc1NC(=O)COC(=O)c1cc(SC)ccc1Cl,-11%,-6.0%,-8%,5%,-13%,?,4%,5%
CCOC(=O)c1noc2ncn(CC(=O)Nc3ccc(F)cc3Cl)c(=O)c12,·,-1.6%,2%[46.1 µM],-22%,3%,·,·,·
CC(=O)Nc1cccc(OCC(=O)NS(=O)(=O)c2ccc(Cl)cc2)c1,8%,-4.1%,0%,-2%,2%,-28%,12%,-3%
Cc1ccc(S(=O)(=O)NCC2CCCO2)cc1 (stereo not given),-2%,·,10%,13%,·,29%,1%,-3%
COc1ccc(C(=O)CN2CCN(c3ccc(Cl)cc3)CC2)cc1OC,5%,·,·,?,·,·,-2%,0%

# (further entries)
SMILES,RE007 growth inh,Cruzain inh Det,Lassa entry inh,StopGo reporter,Cruzain noTriton,Marburg entry inh,SARS PLpro yeast,NS1 function inh
Cc1ccc(NC2(C#N)C(=O)Nc3ccccc32)cc1 (stereo not given),2%,4.8%,?,-11%,-5%,6%,-9%,-3%
Cc1ccc(S(=O)(=O)NCc2ccco2)cc1C(N)=O,-8%,·,16%,55%[activator],·,1%[46.1 µM],6%,·
O=C(Cn1c(/C=C/c2ccccc2)nc2ccccc21)Nc1ccc(F)cc1,4%,-12%,?,37%[activator],27%,6%,-17%,?
CC(C)c1nn2c(=O)cc(COC(=O)c3cccc(NC(=O)COc4ccc(F)cc4)c3)nc2s1,·,0.9%,6%[46.1 µM],-29%,-4%,·,·,·
N#Cc1ccc(C(=O)NNC(=O)c2cccc(S(=O)(=O)N3CCOCC3)c2)cc1,0%,·,-1%,-13%,·,23%,0%,·
CS(=O)(=O)Nc1ccc(C(=O)Nc2cccc([N+](=O)[O-])c2)cc1,-2%,·,-1%,-13%,·,13%[46.1 µM],1%,·
OCC1(Cc2cccc(Cl)c2)CCCN(Cc2sc(N3CCCC3)nc2Cl)C1 (stereo not given),-18%,·,·,?,·,·,5%,4%
COc1ccc(-c2cc(C(F)(F)F)n3ncc(C(=O)N4CCCCC4c4cccnc4)c3n2)cc1 (stereo not given),20%,·,?,-13%,·,?,0%,·
COCCNC(=O)c1c(C)oc2nc(C)nc(N3CCOCC3)c12,·,-1.3%,28%[46.1 µM],5%,3%,·,·,·
Cc1[nH]c2ccc(C(=O)N3CCN(C)CC3)cc2c1C,4%,·,·,34%[activator],·,·,0%,-2%
NC(=O)[C@H]1CC2(CC(c3cccc(NC(=O)CC(c4ccccc4)c4ccccc4)c3)=NO2)CN1C(=O)c1ccccc1C(=O)c1ccccc1 (stereo not given in full),0%,·,·,-26%,·,·,-2%,13%
CCC1(c2ccccc2)NC(=O)N(CC(=O)Nc2cccc(S(=O)(=O)N3CCCCC3)c2)C1=O (stereo not given),-8%,·,-25%,-6%,·,?,1%,·
